Assay outcomes from PubChem BioAssay.
PINK1 modulator: A Quantitative High throughput Screen to Identify Chemical Modulators of PINK1 Expression; PINK1 immunofluorescence, high-content cytometry, 24 h; Potency, µM (titrated, usually from 76.6 µM), for inactives: at the highest dose activation (PINK1 increase), most hits filed as activators; 410,000 tested, 0.2% active; active = well fitted activation curve with a large enough effect; inconclusive = small, poorly fitted or top-dose-only effect; inactive = flat fitted curve, though single readings scatter; cell line not stated here;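 note: potency is the fitted concentration of half-maximal effect; % of control where 0% means no effect; nearly all actives have a fitted effect of over 65% in size; a mitochondrial uncoupler was the plate control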
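Compound titrations (5 concentrations, 24 h) on a stable cell line; DMSO and CCCP controls. Endpoint: fixed-cell PINK1 immunofluorescence with mitochondrial, cell and nuclear markers, scanned by microplate cytometer.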
TRPML1 agonist: qHTS for Agonists of the Human Mucolipin Transient Receptor Potential 1 (TRPML1); TRPML1-expressing cells, Ca2+ dye fluorescence, FDSS; host cell line not named in the record; reference of the full effect not given here; activation, % (test concentration not listed); 410,000 tested, 0.12% active; in the data active = activation above about 50%; inconclusive = about 30% to 50%; inactive = below about 30%; note: 0% is about no effect; the text of the record puts the active cut at 80%
Target sequence (Q9GZU1 whole entry, looked up): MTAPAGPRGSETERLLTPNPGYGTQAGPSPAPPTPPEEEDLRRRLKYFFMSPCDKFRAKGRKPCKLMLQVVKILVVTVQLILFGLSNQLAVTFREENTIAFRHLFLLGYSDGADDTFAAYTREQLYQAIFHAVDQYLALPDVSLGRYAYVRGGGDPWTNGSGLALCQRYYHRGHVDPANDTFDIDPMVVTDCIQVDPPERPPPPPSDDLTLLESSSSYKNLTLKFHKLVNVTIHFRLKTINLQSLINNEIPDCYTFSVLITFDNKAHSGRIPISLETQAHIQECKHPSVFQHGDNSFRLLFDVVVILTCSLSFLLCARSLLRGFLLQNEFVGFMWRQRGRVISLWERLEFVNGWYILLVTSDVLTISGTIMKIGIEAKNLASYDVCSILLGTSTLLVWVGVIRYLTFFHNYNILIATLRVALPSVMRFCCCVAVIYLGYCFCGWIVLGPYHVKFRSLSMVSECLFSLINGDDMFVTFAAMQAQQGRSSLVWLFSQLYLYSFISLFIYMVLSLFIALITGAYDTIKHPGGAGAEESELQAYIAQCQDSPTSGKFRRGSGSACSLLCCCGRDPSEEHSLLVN
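Agonist activity was taken from a 110 s kinetic Ca2+ dye read on the FDSS after pinning compounds onto TRPML1-DL cells. The cells were seeded at 1,500/well with Tet inducer, incubated about 16 h, then dye-loaded at room temperature.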
D2 ag: Beta-Arrestin HTS for Positive Allosteric Modulators of the Human D2 Dopamine Receptor: Agonists; activation, % (test concentration not listed); D(2) dopamine receptor (Homo sapiens), P14416; DiscoveRx PathHunter D2 beta-arrestin, luminescence, 90 min; 100% = 57 uM dopamine signal; 360,000 tested, 0.084% active; in the data active = activation above about 40%; inconclusive = about 15% to 40%; inactive = below about 15%; note: compound concentration not given in the record; the text of the record calls up to 30% inactive
Target sequence (P14416 whole entry, looked up): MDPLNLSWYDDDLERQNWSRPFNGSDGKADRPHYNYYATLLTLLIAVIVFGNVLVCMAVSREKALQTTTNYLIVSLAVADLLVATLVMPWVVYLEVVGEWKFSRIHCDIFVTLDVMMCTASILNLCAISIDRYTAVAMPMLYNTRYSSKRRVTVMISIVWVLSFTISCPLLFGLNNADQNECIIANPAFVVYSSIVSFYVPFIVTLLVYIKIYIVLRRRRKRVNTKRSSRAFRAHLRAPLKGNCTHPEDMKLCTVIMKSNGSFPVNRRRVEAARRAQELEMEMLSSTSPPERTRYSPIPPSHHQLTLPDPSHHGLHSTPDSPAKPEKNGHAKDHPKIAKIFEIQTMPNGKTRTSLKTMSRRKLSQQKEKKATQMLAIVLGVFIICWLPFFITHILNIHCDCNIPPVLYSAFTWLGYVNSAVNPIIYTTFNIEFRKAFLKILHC
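Agonist mode: compounds alone added to overnight-plated D2 PathHunter cells for 90 min at 37 C, with 57 uM final dopamine (EC100) defining full response. Beta-arrestin recruitment detected by chemiluminescent reagent, read after 1 h at ambient temperature.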
TRPML1 inh: qHTS for Inhibitors of the Human Mucolipin Transient Receptor Potential 1 (TRPML1) | activity change, negative = inhibition, % (concentration not given with the values) | Mucolipin-1 (Homo sapiens), Q9GZU1 | TRPML1-inducible cells, Ca2+ dye fluorescence, FDSS; hits give low values; inhibition of EC80 agonist-evoked calcium signal | 390,000 tested, 0.02% active; in the data active means activity change below about -50%; inconclusive means about -30% to -50%; inactive means above about -30%;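 note: stimulus is agonist 54-4 at its EC80 concentration; % is set by controls: 0 for no effect and ±100 for the full control effect; compound concentration not given in the record; the text of the record puts the active cut at -80%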
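Tet-induced TRPML1-DL cells loaded with Ca8 no-wash calcium dye were read kinetically on FDSS. Compound addition was followed by EC80 agonist 54-4 (4 uM final); inhibition was read over 110 s.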
Six1-Eya2 blk: qHTS Assay for Inhibitors of the Six1/Eya2 Interaction. AlphaScreen GST-Six1/His-Eya2 binding, biochemical; hits give low values; control for the full effect not named in the record. activity change, % (test concentration not listed). 360,000 tested, 0.56% active. AID 651725, 2012; in the data active = activity change below about -65%; inconclusive = about -30% to -65%; inactive = above about -30%; note: % is set by controls: 0 for no effect and ±100 for the full control effect; compound concentration not given in the record
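Six1/Eya2 binding was read as AlphaScreen signal after compounds were pinned into GST-Six1 plus His-tagged Eya2 (5X stock 250/500 nM) in pH 8.0 Tris/NaCl/TCEP buffer, beads added, then incubated 1 h, 37 C, dark.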
D2 potentiator: Beta-Arrestin HTS for Positive Allosteric Modulators of the Human D2 Dopamine Receptor: Potentiators; D(2) dopamine receptor (Homo sapiens), P14416; DiscoveRx D2 beta-arrestin cells, luminescence, 90 min; 100% = 57 uM dopamine signal; potentiation, % (test concentration not listed); 360,000 tested, 0.23% active; AID 624464, 2012; active = potentiation of 50% or more; inconclusive = 30% to 50%; inactive = 30% or less;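 note: compound concentration not given in the record; tested on top of an EC20 dose of dopamine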
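PathHunter beta-arrestin assay in DiscoveRx D2 cells. Compounds were added with an EC20 of dopamine (50 nM final) for 90 min at 37 deg C. Luminescence was read 1 h after detection reagent, with 57 uM dopamine as the EC100 control.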
Active calls of the source: *; ? = inconclusive; . = not tested or not shown; [ ] = remark or other dose.

SMILES | PINK1 modulator | TRPML1 agonist | D2 ag | TRPML1 inh | Six1-Eya2 blk | D2 potentiator
CCc1nc(SCC(=O)N2CCc3ccccc32)c2oc3ccccc3c2n1 | 0.4% | 0.2 | -4.2 | 30.1 | 4.8 | -9.0
O=C(NCC1CCCO1)/C(=C/c1ccc(Cl)cc1)NC(=O)c1ccccc1 (stereo unspecified) | 10.4% | 1.5 | -2.1 | -5.1 | 1.4 | -18.8
CCc1nc2ccc(C(=O)N3CCN(C(=O)c4ccco4)CC3)cn2c1N(CC)CCOC | -0.4% | -1.0 | 4.7 | . | -0.1 | 6.8
CCCCCCCc1nn2c(=O)cc(O)nc2s1 | 18.3% | 1.5 | -1.1 | 11.2 | -5.7 | -17.7
O=C(CSc1nc2ccccc2o1)Nc1nc2ccccc2s1 | 6.9% | 0.5 | -2.6 | -7.2 | 2.8 | -6.9
CCCCN(CC)C(=O)Cc1ccccc1OC | -3.0% | 1.2 | 1.7 | -11.3 | 5.6 | -15.1
CCC/C=C/c1ccc(CN2C(C)C(=O)N(Cc3cn(CCC4OCCO4)nn3)CCS2(=O)=O)cc1 (stereo unspecified) | 3.6% | . | 0.2 | . | -5.0 | .
O=c1oc2ccccc2c(N2CCCCC2)c1CN1CCCC1 | -2.0%[38.3 µM] | -0.3 | -0.2 | 38.8 | 2.6 | -9.4
Cc1ccc2nc(NC(=O)c3ccc(N4C(=O)CCC4=O)cc3)sc2c1 | 7.7% | 0.0 | 1.1 | 1.9 | 6.9 | -2.3
O=C(NCc1cccnc1)Nc1ccccc1 | -0.3% | 0.4 | -0.4 | -2.7 | 6.8 | -11.1
CC(C)(C)OC(=O)NCc1ccc(CNC(=O)c2[nH]cnc2C(=O)N[C@@H](Cc2ccccc2)C(=O)OC(C)(C)C)cc1 | 2.0% | 1.0 | -0.7 | -12.7 | -5.1 | -1.5
CCc1ccc(NC(=O)Cn2nnc(-c3ccc(C)cc3-n3cnnn3)n2)cc1 | 1.8% | 0.8 | -2.7 | 5.1 | 0.6 | -9.8
CCN(CC)CCNCc1cc(Br)ccc1OCC(=O)NCc1ccccc1 | -2.1% | -0.3 | -3.2 | 1.1 | 8.3 | -20.9
COc1ccc(O)c(C2Nc3ccccc3-n3c(-c4ccccc4)c4c(=O)n(C)c(=O)n(C)c4c32)c1 (stereo unspecified) | 4.1% | 2.6 | . | 68.7 | . | .
O=C(O)c1ccc(NC2(C(=O)O)CCCC2)cc1 | -2.5% | 0.6 | -3.3 | -9.7 | 29.4 | -7.3
Cc1ccc(-c2ccc(=O)n(CC(=O)NCCCN3CCCCC3)n2)cc1 | . | 0.3 | -1.3 | 8.5 | -0.3 | -18.6
CC(=O)N1CCC(C(=O)Nc2cc(C)cc(C)c2)CC1 | 2.0% | -0.2 | -1.4 | -4.5 | -5.1 | -5.1
CC(=O)Nc1ccc(-c2nnn(CC(=O)Nc3ccc4c(c3)OCO4)n2)cc1Cl | 0.4% | -0.1 | -1.1 | -11.4 | -2.5 | -6.6
CC1CCCCC12NC(=O)N(Cc1cc(=O)n3ccsc3n1)C2=O (stereo unspecified) | -0.2% | -0.3 | -5.6 | -2.1 | 3.8 | -12.9
COc1ccc(C)cc1NC(=O)COC(=O)C1CC1 | 0.1% | -1.2 | -1.6 | 5.5 | 2.1 | -4.0
CCC(C)NC(=O)C(Sc1ccccc1)c1ccccc1 (stereo unspecified) | -0.7% | 3.1 | 2.5 | -8.6 | 3.7 | -5.0
CC1(C)Cc2cccc(C(=O)NC3CCN(Cc4ccccc4)CC3)c2O1 | 0.2% | 0.5 | -0.2 | -2.0 | -1.3 | -21.3
Brc1ccccc1-c1nnc(COc2ncnc3ccccc23)o1 | 4.0% | 0.3 | -1.7 | 11.2 | -3.6 | -4.5
Cc1cccc(C)c1NC(=O)Nc1nnc([C@@H]2C[C@H](O)[C@@H](CO)O2)s1 | 2.6% | -0.5 | -4.4 | . | 9.2 | -2.7
Cc1ccc(-c2nc(C)c(CCNS(=O)(=O)c3ccc(F)c(C(F)(F)F)c3)s2)cc1 | 7.3% | 1.9 | . | 5.2 | . | .

More structures:
SMILES | PINK1 modulator | TRPML1 agonist | D2 ag | TRPML1 inh | Six1-Eya2 blk | D2 potentiator
Cc1ccccc1C(NC(=O)C1CCN(Cc2ccc(Oc3ccccc3)cc2)CC1)c1ccsc1 (stereo unspecified) | 11.8% | 0.8 | -4.0 | . | -20.4 | -8.9
COCCCn1c(SCc2nnc(-c3ccc(OC)c(OC)c3)o2)nnc1-c1ccncc1 | -0.8% | 3.2 | -2.1 | -7.2 | 0.8 | 6.6
O=C(Cn1nc(C(F)F)cc1C(F)F)NNC(=S)Nc1ccc(F)cc1 | 1.1%[38.3 µM] | -0.3 | -2.4 | -5.9 | 3.9 | -13.5
O=C(CSc1nnc(NC(=O)c2c(F)cccc2F)s1)NC1CCCCC1 | 1.4% | -0.6 | -4.1 | 2.9 | -0.8 | -7.8
Cc1ccc(CNC(=O)/C(C#N)=C/c2ccc(C)s2)cc1 | 1.8% | 0.3 | -0.5 | 2.3 | 0.0 | -28.0
CCOc1ccccc1N(C(=O)Nc1ccc(Cl)cc1)C1=NC(C)CS1 (stereo unspecified) | 4.7% | 0.0 | -4.2 | -3.8 | -3.8 | -7.0
COc1ccc(CNC(=O)[C@H](C)NC(=O)C2CCN(S(=O)(=O)c3ccccc3)CC2)cc1 | 1.5% | -0.2 | -6.4 | -12.0 | 0.1 | -11.7
COc1ccc(OC)c(S(=O)(=O)NCCc2ccccc2)c1 | -2.4%[38.3 µM] | -0.5 | -2.1 | -4.9 | -1.2 | -10.3
CCOC(=O)c1cnc2c(ccc3ccccc32)c1Nc1ccccc1OCC | -0.7% | -0.9 | . | -6.2 | . | .
FC(F)C(F)(F)c1cc(-c2ccc(Cl)cc2)n[nH]1 | 23.7% | 11.5 | 0.8 | 4.1 | 5.4 | -0.2
O=C(O)c1ccccc1CSc1nc2ccccc2o1 | -0.4% | -1.3 | -1.8 | -0.8 | 7.8 | 3.0
CCN(CC)C(=O)Cn1c(=O)n(-c2ccc(Cl)cc2)c(=O)c2c3c(sc21)CCC3 | 2.3% | 1.1 | . | 7.0 | . | .
Cc1ccc(C(=O)c2cncc(Br)c2)cc1 | 0.3% | -0.4 | -1.6 | 14.1 | 13.3 | -0.9
CC(=O)c1cccc(NC(=O)COC(=O)c2ccccc2C)c1 | 2.3% | -0.6 | -4.5 | 12.6 | 2.8 | -5.2
CCSc1nc2sccc2c(=O)n1-c1ccccc1 | -0.2% | 2.2 | 1.9 | 20.9 | -4.8 | -0.5
CCc1ccccc1NC(=O)c1sc2nc(C)cc(C)c2c1N | 2.4% | 0.5 | 1.1 | 40.0 | -19.6 | -3.7
CCc1nc2c(OCC(=O)C(C)(C)C)cccn2c1N(C=O)CC(=O)N(C)C | -0.2% | -0.7 | -4.7 | . | -6.5 | 2.4
O=C(NCC1COCCO1)C1CCN(S(=O)(=O)c2ccccc2)CC1 (stereo unspecified) | ? | 0.6 | -1.0 | -12.7 | 0.7 | 0.9
COc1ccc(CC(=O)OCn2nnc3ccccc3c2=O)cc1OC | 0.5% | -0.7 | -3.1 | 23.2 | 2.2 | -14.2
COC(=O)C1=C(C)OC(N)=C(C#N)C1c1c(C)nn(C)c1C (stereo unspecified) | 0.3% | -0.7 | -3.6 | -7.1 | 3.2 | -18.2
CC(C)Oc1ccc(C(CC(=O)O)NC(=O)c2cccs2)cc1 (stereo unspecified) | 5.1%[38.3 µM] | -0.1 | -2.8 | -4.2 | 1.5 | -7.9
O=C(Nc1ccccc1Cl)C1CCN(c2nc3ccccc3nc2C(F)(F)F)CC1 | 2.1% | -0.3 | . | 0.4 | . | .
COc1ccc(NC(=O)c2ccco2)cc1NC(=O)c1ccc(C)cc1 | 0.3% | 0.5 | -0.8 | 7.8 | -1.9 | -10.8
Cc1cccc(C2c3[nH]c4ccccc4c3CCN2C(=O)c2cn(C)c3ccccc3c2=O)n1 (stereo unspecified) | 1.4% | 0.1 | 2.4 | 16.2 | -11.6 | 4.0
O=C(NCC1CCCO1)c1cc2ccccc2[nH]1 (stereo unspecified) | -0.6% | -0.5 | -7.2 | -8.5 | -0.7 | -18.9

The results go on.
SMILES | PINK1 modulator | TRPML1 agonist | D2 ag | TRPML1 inh | Six1-Eya2 blk | D2 potentiator
COc1ccc(Br)cc1S(=O)(=O)Nc1ccc(Cl)cn1 | -1.0% | 0.0 | 0.2 | 8.0 | -2.2 | -1.2
CCC(CC)C1C(C#N)=C(N)Oc2n[nH]c(-c3ccccc3)c21 (stereo unspecified) | 6.7%[38.3 µM] | 1.4 | 2.0 | 1.1 | -1.6 | -15.9
CCC(NC(=O)CCc1ccccc1)c1ccccc1 (stereo unspecified) | -1.2% | 2.9 | -1.9 | 18.2 | 4.2 | -5.6
O=C(Nc1cc(S(=O)(=O)N2CCOCC2)ccc1N1CCOCC1)c1cccc(S(=O)(=O)N2CCCCC2)c1 | -0.3% | 0.9 | -5.7 | -0.9 | 9.9 | -2.0
COc1cccc(C(=O)Nc2ccccc2C(=O)NCC2CCCO2)c1 (stereo unspecified) | 0.2% | -0.8 | -7.1 | 20.7 | -1.3 | 16.5
C[C@H](CO)N1C[C@H](C)[C@@H](CN(C)Cc2ccc(Oc3ccccc3)cc2)Oc2ccc(NC(=O)Cn3cnnn3)cc2C1=O | 0.7% | -0.5 | 1.1 | 18.6 | -16.9 | -32.6
CC(C)NC(=O)Nc1ccc2c(c1)C(=O)N([C@H](C)CO)C[C@H](C)[C@@H](CN(C)S(=O)(=O)c1ccccc1)OCCCC[C@@H](C)O2 | 0.8% | -0.3 | -7.1 | -13.8 | 8.6 | 2.0
CCOC(=O)COc1cc2c(C(=O)OCC)c(C)oc2cc1Br | 0.1%[38.3 µM] | -1.0 | -3.0 | 0.7 | 9.1 | 0.8
O=C(NCc1ccco1)C(=O)NCC1OCCN1S(=O)(=O)c1ccc(Br)cc1 (stereo unspecified) | 1.7% | -0.6 | 3.2 | -1.8 | 4.5 | 2.5
CC1CCCC(C)N1C(=O)COC(=O)CSc1ccc(C(N)=O)cc1[N+](=O)[O-] (stereo unspecified) | 0.8% | 0.6 | 0.3 | 23.3 | 3.9 | -2.5
CCOC(=O)N1CCN(CC(=O)Nc2ccc(F)c(F)c2)CC1 | -2.1% | 4.3 | 4.7 | -8.6 | 4.8 | -7.6
Cc1ccc(-c2nc3ccccc3s2)cc1NC(=S)NC(=O)/C=C/c1ccco1 | 6.9% | -0.8 | -3.9 | 4.0 | ? | -10.3
